# Source: PubChem (National Center for Advancing Translational Sciences (NCATS))
# 2A StopGo: lowers the luciferase signal of an FMDV 2A StopGo reporter; human cells with a luciferase reporter of 2A StopGo recoding; control for the full effect not named in the record; Potency, µM (titrated, usually from 57.9 µM), without a hit: top-dose signal change, negative = less light; hit rate 1.2% among 410,000; AID 1159524; active = well fitted falling curve with a large enough effect; inconclusive = small, poorly fitted or top-dose-only effect; inactive = no such curve, though single readings can be large or run the other way; tested in HEK293T cells; note: nearly all actives have a fitted effect of over 45% in size; luciferase light after 4 h
# RE007 growth inh: less growth of the S. pombe RE007 Vpr strain | Potency, µM (highest dose often 92.2 µM), without a hit: at the top dose activity change, negative = less growth | hit rate 0.21% among 360,000 | S. pombe RE007 Vpr strain, BacTiter-Glo ATP luminescence, 24 h; control for the full effect not named in the record; active = well fitted falling curve with a large enough effect; inconclusive = small, poorly fitted or top-dose-only effect; inactive = no such curve, though single readings can be large or run the other way;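 note: nearly all actives have a fitted effect of over 50% in size; the assay follows cell death caused by Vpr and the record does not say whether a fall means rescue or toxicity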
#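 Fission yeast strain RE007, carrying one chromosomally integrated HIV-1 vpr copy, was seeded at OD 0.01 in PMG+AL medium with 23 nL pinned compound. After 24 h at 30 °C and 99% humidity, viability was read by BacTiter-Glo luminescence.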
# Numbers without * were called inactive; u = inconclusive; [ ] = another dose, or the depositor's remark. % is set by controls: 0 for no effect and ±100 for the full control effect; potency is the fitted concentration of half-maximal effect. A portion of the library; rates above refer to the full screens.
# Values run as follows: RE007 growth inh	2A StopGo
1) CCOC(=O)C1=C(C)OC(=CC=Cc2ccccc2)C1=O
  -15%	6%
2) CC1=NN(c2ccccc2)C(=O)C1C(=S)SC1CC(=O)NC1=O (stereo not drawn)
  -1%	22%
3) O=C(COC(=O)c1ccc(O)cc1)Nc1cc(S(=O)(=O)N2CCCCCC2)ccc1Cl
  0%	u
4) CC(OC(=O)CCNS(=O)(=O)c1ccc(Cl)cc1)C(=O)N(C)Cc1ccccc1 (stereo not drawn)
  3%	u
5) COc1ccc(C(=O)N2CCCCC2c2cc(C(=O)Nc3ccc(F)c(Cl)c3)no2)cc1 (stereo not drawn)
  -3%	-25%
6) O=C1NC[C@H](CCCCN2C[C@H](Cc3ccc(O)cc3)N(Cc3ccccc3)C(=O)C2=O)N(Cc2ccccc2)C1=O
  0%	-24%
7) O=C(Nc1nc(OCCN2CCCC2=O)cnc1/C=C\c1ccccc1)c1cc2ccccc2s1
  4%	-20%
8) CCCCn1nnnc1C1(C)CCC(=O)N1CCOC (stereo not drawn)
  6%	-17%
9) Cc1cc(C(=O)N2CCCC(C)(C(=O)NS(=O)(=O)C3CC3)C2)n(C(C)(C)C)n1 (stereo not drawn)
  2%[18.4 µM]	-18%
10) COc1cccc(-c2ccc3nccn3c2)c1
  -11%	37%[activator]
11) O=S1(=O)CC(N2CCN(CC3CC3)CC2)CN1Cc1ccc(F)cc1 (stereo not drawn)
  3%	-12%
12) CC(C)C[C@H]1COc2cccc(N3CCC[C@H]3CO)c2S(=O)(=O)N1
  8%	-15%
13) CCCNC(=O)C1(C)CCCN(C(=O)c2oc3ccccc3c2C)C1 (stereo not drawn)
  -7%	-6%
14) O=C(COC(=O)c1cccc(Br)c1)NC1CCCCCCC1
  19%	0%
15) CN1CC[C@@H]2C(=O)N3CCc4ccc(Br)cc4[C@@H]3C[C@@H]21
  0%	0%
16) CC1(C(=O)Nc2cccc3ncccc23)CCN1C(=O)Cc1ccc(-c2ccccc2)cc1 (stereo not drawn)
  -6%	u
17) O=C(Nc1cc(S(=O)(=O)N2CCCC2)ccc1OCC(F)(F)F)c1ccncc1
  -8%	-17%
18) CC(C)=CCC[C@H](C)CC1Cc2[nH]c(=S)[nH]c(=O)c2C(c2ccc(Cl)cc2)O1 (stereo partly drawn)
  9%	-19%
19) CCCCN(C(C)=O)c1ccc2c(c1)C1CC2CCN1C(=O)OCc1ccccc1 (stereo not drawn)
  -11%	40µM*
20) CC1(C(=O)NS(=O)(=O)c2ccc(Cl)s2)CCN1C(=O)c1ccc(C2CCCCC2)cc1 (stereo not drawn)
  3%	-13%
21) COc1cc2c(=O)[nH]c3cc([N+](=O)[O-])ccc3c2cc1[N+](=O)[O-]
  14%	-13%
22) Cc1ccc2nc(-c3ccc(C#N)cc3)c(Cc3cccc(Cl)c3)n2c1
  -29%	-12%
23) Cc1cccc(C)c1NC(=O)C(c1ccccc1)N(C)CCc1ccccc1 (stereo not drawn)
  -30%	-18%
24) Nc1nccc2c1ncn2C1OC(CO)C(O)C1O (stereo not drawn)
  -10%	0%
25) Cc1cc(C)cc(Cn2cc(CN3CC(N4CCCC4)CS3(=O)=O)nn2)c1 (stereo not drawn)
  -6%	-6%
26) Cc1cccc(C(O)c2ncc(-c3ccc(F)cc3)[nH]2)c1C (stereo not drawn)
  -18%	11%
27) COC(=O)C[C@@H]1C=C[C@@H](NC(=O)Nc2cccc(F)c2)[C@@H](CO)O1
  5%	-5%
28) Cc1ccc(S(=O)(=O)NN(Cc2ccccc2)Cc2ccccc2)cc1
  -7%	-2%
29) Cc1cccc(-c2cc(NCCc3cccnc3)n3nccc3n2)c1
  -15%	-13%
30) CN(C)c1ncnc2c1ncn2[C@H]1CN(Cc2ccc(Cl)cc2)C[C@@H](CO)O1
  4%	-16%
31) COc1cc(OC)nc(Nc2nc(C(N)CCc3ccccc3)cs2)n1 (stereo not drawn)
  -20%	0%
32) COCCNC(=O)C1(C)CCCN(Cc2csc3ccccc23)C1 (stereo not drawn)
  -10%[18.4 µM]	-25%
33) CSCCC(NC(=O)c1ccc(Cl)cc1Cl)C(=O)N1CCN(C(=O)c2ccccc2)CC1 (stereo not drawn)
  -3%	-14%
34) Fc1cccc(Cc2c(-c3ccco3)nc3ccc(Cl)cn23)c1
  -8%	u
35) C[C@@H]1CN([C@@H](C)CO)C(=O)c2cc(-c3ccncc3)cnc2O[C@H]1CN(C)C(=O)c1cccc(F)c1
  2%	-7%
36) O=C1c2ccccc2C(c2nnnn2C2CCCCC2)N1CCc1ccc(O)cc1 (stereo not drawn)
  1%	-10%
37) COc1cccc(C(=O)N2CCC[C@H]2C(=O)N2CCC[C@H]2C(=O)NCc2ccncc2)c1
  5%	-19%
38) CCc1nc2ccc(C(=O)NCCc3ccccn3)cn2c1N(CC)Cc1cccc(Br)c1
  -19%[18.4 µM]	-11%
39) Cc1ccc(-c2nn(-c3ccccc3)cc2C=C2SC(=S)N(CCS(=O)(=O)O)C2=O)cc1
  48%	u
40) CC(C)(C)c1ccc(C(=O)N2CCC2(C)C(=O)Nc2ccc3[nH]ncc3c2)cc1 (stereo not drawn)
  6%	u
41) CNc1cncc(-c2c(OC)cccc2OC)n1
  -9%	-5%
42) COc1ccc(-c2coc3c(C(=O)Nc4cc(OC)c(OC)c(OC)c4)cccc23)c(C)c1
  5%[18.4 µM]	u
43) Nc1cc(C(=O)N2CCN(c3ccccc3Cl)CC2)ccc1N1CC2CC(C1)c1cccc(=O)n1C2 (stereo not drawn)
  -2%	-26%
44) CCCCC[C@@H]1CCCCC[C@@H](O)C[C@@H](O)[C@@H](O)/C=C/C(=O)O1
  -14%	-26%
45) COc1ccc(C(C)(NC(C)=O)c2nc(-c3ccc(S(C)(=O)=O)cc3)cs2)cc1 (stereo not drawn)
  2%	-15%
46) CCCCN(C=O)c1c(CC)nc2c(OCc3ccc(C(F)(F)F)cc3)cccn12
  -15%	-22%
47) COC(=O)C1CC(O)C(O)C(O)C1 (stereo not drawn)
  14%	-24%
48) CC(C)(C)c1ccc(S(=O)(=O)NC(=O)C2(C)CCN2C(=O)C2(c3ccccc3)CC2)cc1 (stereo not drawn)
  1%[18.4 µM]	6%
49) Cc1csc(N2CCCC2c2nc3cc(C(F)(F)F)ccc3n2CCOCCO)n1 (stereo not drawn)
  -2%	0%
50) CCOC(=O)C1CCCN(C(=O)c2cccc(C(F)(F)F)c2)CC1 (stereo not drawn)
  11%[18.4 µM]	-6%
51) CCOC(=O)C1=C[C@@H](c2ccccc2)N(S(=O)(=O)c2ccc(C)cc2)[C@H]1c1cccc(Cl)c1
  3%	-18%
52) Cc1ccccc1NC(=O)C(C)Sc1nnc(CN2CCCC2)n1Cc1ccccc1 (stereo not drawn)
  -25%	-3%
53) CN1OC[C@@H]2CN(C(=O)CCc3ccccc3)[C@H](c3ccccc3Br)C[C@@H]21
  5%	-9%
54) COc1ccc(C(=O)c2[nH]c(N)c(C(=O)NCCc3c[nH]c4ccccc34)c2-c2ccc(Cl)c(F)c2)cc1
  3%	-24%
55) COc1ccc(C(C)(NC(C)=O)c2nc(-c3cc(F)cc(F)c3)cs2)cc1 (stereo not drawn)
  8%	0%
56) C[C@H](O)C#Cc1ccc2c(c1)O[C@@H](CN(C)C(=O)c1ccncc1)[C@@H](C)CN([C@H](C)CO)S2(=O)=O
  3%	0%
57) O=S1(=O)NCC2(CC2)CN1Cc1ccccc1
  -11%	-17%
58) CC(C(=O)NC1CCCC1)n1c(C2CC2)nc2ccccc21 (stereo not drawn)
  2%	12%
59) CC(C)c1ccc(CC(=O)N2CCC2(C)C(=O)Nc2ccc3c(c2)OCO3)cc1 (stereo not drawn)
  -2%[18.4 µM]	u
60) CCc1nc2ccc(C(=O)NCCc3c[nH]c4ccccc34)cn2c1N(C=O)CCC(C)C
  -9%	u

# (list continues)
# Values run as follows: RE007 growth inh	2A StopGo
61) O=S(=O)(NC1CCCC1)c1ccc(F)cc1F
  15%	50%[activator]
62) Cc1cnc(CNC(=O)c2ccc3sc([C@@H]4O[C@H](CO)[C@H](O)[C@H](O)[C@H]4O)nc3c2)cn1
  10%[18.4 µM]	-16%
63) Cc1ccc(S(=O)(=O)NCCc2nnc3ccc(N4CCOCC4)nn23)cc1
  21%	-10%
64) Cc1ccnc(NS(=O)(=O)c2ccc(NC(=O)c3cccc(Cl)c3)cc2)n1
  -6%	-8%
65) CC(C)[C@@H](CO)NC(=O)[C@H]1O[C@@H](n2cnc3c(N)ncnc32)[C@H](O)[C@@H]1O
  6%	-11%
66) O=C(CNC(=O)N1CC(=O)Nc2ccccc21)Nc1ccc(Br)cc1F
  2%	-17%
67) O=C1[C@H]2[C@@H](c3ccc(C(F)(F)F)cc3)N[C@]3(CCCN(CC4CCCCC4)C3=O)[C@H]2C(=O)N1Cc1ccccc1
  8%	-5%
68) Cc1ccc(-c2cc3nc(C)cc(N4CCN(C(=O)c5ccoc5)CC4)n3n2)cc1
  10%	-13%
69) Cc1ccc(S(=O)(=O)NC(=O)C2(C)CCN2C(=O)c2ccccc2)nc1 (stereo not drawn)
  6%	7%
70) COc1cccc(C(C)(O)c2nc(-c3ccc(S(C)(=O)=O)cc3)cs2)c1 (stereo not drawn)
  78%[18.4 µM]	u
71) COc1ccc(NC(=O)COC(=O)Cc2cccs2)cc1Cl
  -7%	-23%
72) OCCNc1ncnc2c1ncn2[C@H]1CN(Cc2ccc(Cl)cc2)C[C@@H](CO)O1
  11%	-19%
73) COCC#Cc1ccc2c(c1)O[C@@H](CN(C)C(=O)Nc1ccc(OC)cc1)[C@H](C)CN([C@H](C)CO)S2(=O)=O
  -13%	-16%
74) O=S(=O)(Nc1ccc(NS(=O)(=O)c2ccccc2)c2ccccc12)c1ccccc1
  -14%	0%
75) CCCCN1C(=O)NC(c2cccc([N+](=O)[O-])c2)C(C(=O)OCC)=C1C (stereo not drawn)
  -1%	u
76) CCc1ccc(C#CC2=CC(=O)CC(C)(C)C2)cc1
  u	15%
77) COc1ccc(-c2ccc3nccn3c2)cc1
  8%[18.4 µM]	31%[activator]
78) COc1ccc(NC(=O)Nc2nc(C(N)Cc3ccc(C(F)(F)F)cc3)cs2)cc1 (stereo not drawn)
  3%[18.4 µM]	u
79) CN1C[C@@H]2[C@@H]3C(=O)N(Cc4ccccc4)C(=O)[C@@H]3[C@](Cc3ccccc3)(C1=O)N2C(=O)c1ccc(Cl)cc1
  -6%	7%
80) O=C(COC(=O)c1cc(S(=O)(=O)N2CCOCC2)ccc1F)Nc1ccccc1C(F)(F)F
  -4%	-18%
81) CCCCCCCCNCCS(=O)(=O)NCCCCCCCC
  1%	u
82) O=C(NCCc1cccc(F)c1)C1CC(O)CN1C(=O)Nc1ccccc1 (stereo not drawn)
  -16%	0%
83) Cc1cccc(S(=O)(=O)NC(=O)C2(C)CCN2C(=O)Cc2ccc(-c3ccccc3)cc2)c1 (stereo not drawn)
  1%	27%
84) O=C(Nc1cc(S(=O)(=O)N2CCOCC2)ccc1N1CCCC1)c1ccccc1F
  -9%	0%
85) O=C(Nc1ccc(S(=O)(=O)Nc2cnc3ccccc3n2)cc1)c1ccc(Cl)cc1Cl
  -1%	24%
86) CCOC(=O)C1(c2ccccc2)CCN(CCC(=O)Nc2ccc(OC)cc2)CC1
  -8%	-17%
87) COc1ccc(-c2c(C(=O)c3ccccc3)[nH]c(N)c2C(N)=O)cc1OC
  5%	4%
88) O=S1(=O)N[C@@H](Cc2ccccc2)COc2cccc(N3CCC[C@H]3CO)c21
  6%	-19%
89) CCOC(=O)C1(Cc2ccccc2)CCCN(C(=O)COc2ccccc2OC)C1 (stereo not drawn)
  -7%	44%[activator]
90) Nc1nc2cc(Cl)ccc2cc1C(=O)NCCCc1ccccc1
  -22%	-4%
91) O=C1NC[C@@H](CCCCN2C[C@H](Cc3ccc(O)cc3)N(CCc3ccc(O)cc3)C(=O)C2=O)N(CCc2ccccc2)C1=O
  2%	-19%
92) O=C(Nc1ccc(Cc2ccc(NC(=O)Nc3cccnc3)cc2)cc1)Nc1cccnc1
  -5%	-2%
93) CC(=O)Nc1cc(-c2cccc(NS(C)(=O)=O)c2)cn2c(-c3cccc(C(C)=O)c3)cnc12
  8%	-15%
94) Cn1cnc(S(=O)(=O)N2CCCCC2c2cc(C(=O)NCc3ccc(F)cc3)no2)c1 (stereo not drawn)
  11%	0%
95) N#CC(c1ccccc1)C(CC(=NO)c1ccccc1)c1ccccc1 (stereo not drawn)
  -15%	u
96) Cc1ccccc1S(=O)(=O)NC(=O)C1(C)CCN1C(=O)C1(c2ccc(Cl)cc2)CCC1 (stereo not drawn)
  -6%	-1%
97) CCOC(=O)C1=NN2C(O)C3(C)CC(C(=O)OCC)=NN3C(O)C2(C)C1 (stereo not drawn)
  -9%	7%
